High-throughput results as filed in PubChem.
HPGD block = inhibitors of human 15-hydroxyprostaglandin dehydrogenase (HPGD). P15428. Potency, µM, for the others: at the top dose activity change, negative = inhibition, actives largely listed as inhibitors. actives 4.3% (n = 150,000). AID 894. purified HPGD, NADH fluorescence kinetic, PGE2 substrate; active = well fitted inhibition curve with a large enough effect (not every such curve was filed as active); inconclusive = small, poorly fitted or top-dose-only effect, or another doubt; inactive = no such curve, though single readings can be large or run the other way;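 also: top concentration of the series not given in the record; plate controls included wells without enzyme; inactives centre near -10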
Target sequence (P15428 whole entry, looked up): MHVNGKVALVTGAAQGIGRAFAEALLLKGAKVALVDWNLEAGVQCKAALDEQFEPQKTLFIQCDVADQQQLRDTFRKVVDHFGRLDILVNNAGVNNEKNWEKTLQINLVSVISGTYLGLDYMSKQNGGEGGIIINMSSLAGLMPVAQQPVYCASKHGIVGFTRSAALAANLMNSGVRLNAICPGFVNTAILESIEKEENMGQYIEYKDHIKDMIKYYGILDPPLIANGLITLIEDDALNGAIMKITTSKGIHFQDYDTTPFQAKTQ
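20 nM HPGD preincubated 15 min at room temperature with compound in 50 mM Tris-HCl pH 8, 0.01% Tween 20. Started with 1 mM NAD+ and 30 uM prostaglandin E2; NADH fluorescence (360/450 nm) read 5 times over 30-s intervals, last minus first.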
Numbers without * were called inactive; ? = inconclusive; & = joins results of further samples. % is scaled to controls: 0 for no effect and ±100 for the full control effect; potency is read from the fitted curve at half-maximal effect. A portion of the library; count on the stated rates, not on these rows.

SMILES	HPGD block
COC(=O)c1ccc(C2C(Oc3ccc(OC)cc3)C(=O)N2CCc2ccc(OC)c(OC)c2)cc1 (configuration not stated)	-13.7%
CC(C(=O)NC1CCCC1)N(Cc1ccco1)C(=O)c1snc(C(=O)NC2CCCC2)c1N (configuration not stated)	-29.4%
CCN(CC)CCOC(c1ccccc1)c1ccc(C)cc1 (configuration not stated)	-2.4%
N#CC1=C2Nc3ccccc3N2C(=O)NC1(c1ccccc1)C(F)(F)F (configuration not stated)	-4.4%
Cc1cc(C)n(CC2CC(=O)N(c3cc(Cl)cc(Cl)c3)C2=O)n1 (configuration not stated)	-6.8%
O=C(COc1ccccc1)NCC1CCCO1 (configuration not stated)	-21.1%
COc1ccc(C(=O)C(CN2CCOCC2)c2ccccc2)cc1F (configuration not stated)	2.5%
COc1cc(C(=O)NCC(c2ccco2)N2CCCC2)ccc1OCc1c(C)noc1C (configuration not stated)	-8.4%
Cc1ccccc1C1CC(=O)Oc2ccc(O)cc21 (configuration not stated)	28.2µM*
O=C(C1=C(O)C(=O)N(CC2CCCO2)C1c1cccnc1)c1ccco1 (configuration not stated)	-16.1%
CN(C)S(=O)(=O)c1cccc(C(=O)OCC(=O)Nc2ccccc2OC(F)F)c1	-17.6%
Cc1cc(C)c(C#N)c(SCC(=O)NC(C)(C)C)n1	-6.4%
Cc1cc(NC(=O)C2CCCN(S(=O)(=O)c3c(C)noc3C)C2)no1 (configuration not stated)	-4.7%
COc1ccc(OC)c2c1CCC2=O	?
N#Cc1c(-c2ccccc2)no[n+]1[O-]	-10.8%
OC(Cc1cccnc1)(Cc1cccnc1)c1cc2ccccc2[nH]1	0.9%
CCn1c(=O)cc(OCC(=O)Nc2ccccc2N2CCN(C)CC2)c2ccccc21	-9.3%
COc1cc(CNC(C)c2ccccc2)c(Br)cc1OCC(N)=O (configuration not stated)	6.4%
c1cc(CSc2ncnc3nc[nH]c23)ccn1	-4.7%
Cc1ccccc1OCC(=O)N/N=C/c1cc2ccccc2nc1Cl	-6.9%
O=c1c2ccccc2[nH]c(=S)n1CCN1CCN(Cc2ccccc2)CC1	-12.0%
Cc1ccc(C(=O)Nc2sc3c(c2C(=O)NCc2ccco2)CCCC3)cc1	?
CC1CCCC(C)N1Cc1cn2ccccc2n1 (configuration not stated)	-21.8%
Cc1ccc(Oc2ccc3c(c2)C(=O)N(c2ccc(S(=O)(=O)Nc4nccs4)cc2)C3=O)cc1	-8.5%
Cc1ccc2cc(C#N)c(NCc3ccco3)nc2c1	-26.6%
CC1(N2CCCCC2)CC2(O)C(=[N+]1[O-])CCC/C2=N\O (configuration not stated)	2.7%
COc1ccccc1CCn1c(=O)c(-c2ccccc2)nc2cncnc21	-3.4%
CCCOc1ccc(-c2csc(NC(=O)CN3C(=O)CCC3=O)n2)cc1	-10.3%
Cc1onc(-c2ccccc2)c1C(=O)Nc1ccc(OC(C)C)cc1	-6.8%
COc1ccc(-c2nnc3ccc(SCC(=O)Nc4nc5ccccc5s4)nn23)cc1OC	-29.3%
CCC/C=C(\CCC)C(NS(=O)(=O)c1cccc2cccnc12)c1ccc(C(=O)OC)cc1 (configuration not stated)	-21.5%&-16.2%
CCNC(=O)c1c(NC(=O)c2cc(-c3cc(C)ccc3O)n[nH]2)sc2c1CCCC2	?
OCCNc1nc2ccccc2n1-c1ncnc2sc3c(c12)CCC3	-9.8%
Cc1ccc(-n2c(SCC(=O)Nc3nccs3)nc3c(c2=O)SCC3)cc1	-6.2%
CCOC(=O)c1c(O)c2c([nH]c1=O)CCCC2	-2.1%
COc1cc(C(=O)O)ccc1OCc1c(C)noc1C	-11.3%
Cc1nn(-c2ccccc2)c2c1C(c1ccncc1)C(C#N)=C(N)O2 (configuration not stated)	-13.0%
O=c1cc(CO)occ1OCc1cccc(C(F)(F)F)c1	-3.3%
CN(C)c1ccc(O)c2c1C[C@H]1C[C@H]3[C@@H](N(C)C)C(=O)C(C(N)=O)=C(O)[C@]3(O)C(=O)C1=C2O	-2.9%
O=C1CCCC(=O)C1=Cc1c[nH]c2ccccc12	22.4µM*
CC1(C)CN=C(N(Cc2ccccc2)C(=O)Nc2ccccc2)S1	-13.5%
Cc1cccc(Nc2ccccc2C(=O)OCC(=O)N2CCOCC2)c1C	?
CCOC(=O)c1sc(=NC(=O)c2ccc(OC)c(OC)c2)n(C)c1C	?
COC(=O)c1ccc2c(c1)nc(C)n2CCO	-2.3%
OC1(c2cccc(C(F)(F)F)c2)CCN(c2ccc(-c3ccccc3)nn2)CC1	-10.7%
C=CCOc1c(CNc2ccc(C(=O)O)cc2)cccc1OC	-5.7%
O=[N+]([O-])c1nn(-c2ccc3c(c2)OCCO3)n(O)c1=NCc1ccccc1Cl	-0.7%
CCCOc1ccc(C(=O)Nc2ccc(N3CCN(C(C)=O)CC3)cc2)cc1	-21.6%
COc1ccc(-c2nnc3n2N=C(C)CS3)cc1	-22.8%
CCN(CC)C(=O)COc1cc(C)c(Cl)c(C)c1	-11.7%
COc1c(C)cc(Br)cc1C(=O)Nc1ccc(N2CCN(S(C)(=O)=O)CC2)cc1	-7.0%
COC(=O)Cn1c(C)c(C(C)=O)c(C(C)=O)c1C	-9.8%
C=C(C)c1cccc(C(C)(C)NC(=O)N2CC(C)OC(C)C2)c1 (configuration not stated)	2.8%
N#Cc1cccc(-c2cn(S(=O)(=O)c3ccc(Cl)cc3)nc2N)c1	-17.7%
CCOc1ccc(C(=O)Nc2nc(C)cc(C)n2)cc1[N+](=O)[O-]	-3.0%
O=C(Nc1ccc(N2CCN(C(=O)c3ccco3)CC2)c(Cl)c1)c1c(F)c(F)c(F)c(F)c1F	-15.6%
O=C1Cc2ccccc2N1c1c(Cl)cccc1Cl	3.4%
COc1ccc(NS(=O)(=O)c2ccc3oc(SC4CCOC4=O)nc3c2)cc1 (configuration not stated)	31.6µM*
CC(=O)N1CCc2cc(Br)cc(S(=O)(=O)NCC3CCCO3)c21 (configuration not stated)	3.0%
CC(=S)/C=C1\Sc2ccccc2N1C	?

(next part)
SMILES	HPGD block
N#CC1=C(SCc2ccccc2)NC(=O)CC1c1cccc(O)c1 (configuration not stated)	-7.2%
COc1ccc(NC(=S)NN2CCN(C)CC2)cc1OC	-2.2%
COc1cc(NC(=O)Cn2nnc(-c3ccncc3)n2)cc(OC)c1	-11.6%
Cn1cccc1/C=C1\SC(=O)N(c2ccccc2)C1=O	-21.9%
Cc1nnc(NC(=O)c2cccc(S(=O)(=O)N3CCOCC3)c2)s1	-9.9%
CNC(=O)N(c1ccccc1)c1ccccc1	-0.5%&-6.4%
O=C(NCc1ccco1)c1nc2ccccc2s1	?
CC1(C(=O)N2CC3(CC(c4ccccc4)=NO3)C[C@H]2C(=O)NCC(N)=O)CC1 (some centres not stated)	-3.1%
O=C(Nc1ccccc1N1CCOCC1)c1cc(-c2ccco2)nc2ccccc12	-12.2%
O=C(COC(=O)c1cc[n+]([O-])cc1)Nc1ccc(F)c([N+](=O)[O-])c1	3.1%
CCn1nnc(NC(=O)c2cccc(-c3cc4ccccc4oc3=O)c2)n1	?
CC1(C)CC(=O)C(C=NCCc2ccc(O)cc2)=C(O)C1	-13.2%
CN1C(=O)C(/C(N)=N/NC(=O)c2ccccc2)C2CC1(C)Oc1ccccc12 (configuration not stated)	-4.1%
CN1CCN(CCCNC(=O)Nc2cccc3ccccc23)CC1	-26.1%
CCOC(=O)C1C(=O)NC(c2ccccc2)=NC1c1ccccc1 (configuration not stated)	-5.4%
CC(C)(C)c1ccc(COC(=O)Nc2ccc(F)cc2)cc1	-13.0%
CCC(CC)c1nnc(NC(=O)C2CC(=O)N(c3ccc4c(c3)OCCO4)C2)s1 (configuration not stated)	?
NC(=O)c1csc(-c2ccc(CO)o2)n1	-4.3%
COC(=O)c1cccc(C(=O)Nc2ccc(C)cc2Br)n1	-11.5%
O=C(Cc1ccccc1)NC(=S)Nc1ccc2oc(-c3ccccc3)nc2c1	?
COc1ccc(O)c(C(=O)c2cnc3nc4ccccc4n3c2)c1	?
CN(C)c1nc2ccc(OCCN3CCCCC3)cc2s1	-5.2%
Cc1ccc2c([N+](=O)[O-])c(C)ccc2n1	-3.7%
C[C@@]1(C2CCCC2)Cc2cc(OCC(=O)O)c(Cl)c(Cl)c2C1=O	-3.8%

Shown as a hit in HPGD block (from the list above):
SMILES	HPGD block
Cc1ccccc1C1CC(=O)Oc2ccc(O)cc21 (configuration not stated)	28.2µM*
O=C1CCCC(=O)C1=Cc1c[nH]c2ccccc12	22.4µM*
COc1ccc(NS(=O)(=O)c2ccc3oc(SC4CCOC4=O)nc3c2)cc1 (configuration not stated)	31.6µM*

(further entries)
SMILES	HPGD block
COc1ccc(OC)c(C2C(C(=O)c3ccccc3)=C(C)Nc3nc4ccccc4n32)c1 (configuration not stated)	-9.2%
Cc1ccc(C)c(N2CCN(C(=O)c3cc4ccccn4n3)CC2)c1	-11.0%
CC(C)C(=O)Nc1ccc(C(=O)N2CCCCCC2)cc1	2µM*
CCOC(=O)c1ccc(Nc2nc(C(=O)OCC)nc3ccccc23)cc1	?
O=C(N/N=C/c1c(Nc2cccc(C(F)(F)F)c2)nc2ccccn2c1=O)c1ccccc1	-10.2%
O=C(Nc1cccc(F)c1)/C(=C\c1ccco1)NC(=O)c1cccs1	-19.7%
C(=N\c1nc2ccccc2n1CCN1CCCCC1)/c1cccs1	-9.7%
O=c1cc(C(F)F)oc2c1ccc1ccccc12	?
CCOC(=O)c1[nH]c(C)c(C(=O)N2CCc3ccccc32)c1C	-8.8%
CN(C)c1ccc(C=Nc2cnn(C)c2C(N)=O)cc1	-29.3%
CCN(CC)S(=O)(=O)c1ccc(Oc2ccccc2)cc1	-15.7%
COc1ccc(NS(=O)(=O)c2cccc(C(=O)O)c2)cc1	-13.7%
CCOc1ccc(NC(=O)CSc2n[nH]c(=O)n2-c2ccccc2)cc1	-12.7%
Cc1ccc(C(=O)N/C(=C\c2cccc([N+](=O)[O-])c2)C(=O)OCN2C(=O)c3ccccc3C2=O)cc1	-12.3%
COc1ccc(NC(C)=O)cc1NC(=O)CN1CCN(CC(=O)Nc2ccc(Cl)cc2)CC1	0.9%
COc1cc(C(=O)Nc2ccccc2-c2nnn(CC(N)=O)n2)cc(OC)c1OC	-16.3%
CCc1[nH]nc2c1C(c1cccnc1)C(C#N)=C(N)O2 (configuration not stated)	-10.6%
Cc1occc1-c1nnc(SCC(=O)N2CCOCC2)n1Cc1ccco1	-8.9%
COc1ccccc1OCc1nc(Cc2ccc(Cl)cc2)no1	-15.5%
Cc1ccc(S(=O)(=O)Cc2ccc(C(=O)N3CCN(Cc4ccccc4)CC3)o2)cc1	-23.1%
CC(=O)c1c(N)n(C)c(=O)n(C)c1=O	1.8%
C/C(=N\NC(=O)c1c(-c2ccccc2Cl)noc1C)c1cccc(NC(=O)C(C)C)c1	5.2%
C=CCNC(=O)/C(C#N)=C\c1cc(Cl)c(OCC)c(OC)c1	-19.0%
COc1ccc(-c2cc(C(=O)O)c3sc(N4CCCCC4)nc3n2)cc1OC	?
N#CC1=C(N)N2C(=C(C#N)C1c1cccc(Br)c1)Nc1ccccc12 (configuration not stated)	-13.6%
COc1ccc(/C=N/Nc2nc3ccccc3[nH]2)cc1OC	-17.8%
CCOC(=O)c1cc(CC)sc1NC(=O)COC	-18.1%
COC(=O)NNC(=O)/C=C/c1ccccc1	-2.9%
C=CCN1C(=O)C(O)(CC(=O)c2ccc(N)cc2)c2ccccc21 (configuration not stated)	-12.6%
Cc1cc(NC(=O)CCN2C(=O)/C(=C/c3ccccc3Cl)SC2=S)no1	-5.6%
O=C(Cc1cccc2ccccc12)NNC(=O)c1cccs1	-9.9%
COC(=O)c1ccc(NC(=O)c2ccc(N(C)S(C)(=O)=O)cc2)cc1	-9.3%
O=C1c2cccc3c(Nc4ccccc4Cl)c([N+](=O)[O-])cc(c23)C(=O)N1CCO	1.41µM*
Cc1cc(C)c(NS(=O)(=O)c2ccc3c(c2)NC(=O)CC(=O)N3)c(C)c1	-6.2%
c1ccc2cc(CSCc3nc4ccccc4[nH]3)ccc2c1	-4.5%
CC(C)c1nc(NCc2ccccc2)c(C#N)c2c1CCCC2	?
COc1cc(/C(C#N)=C/c2ccccc2)c([N+](=O)[O-])cc1OC	-10.1%
CCOc1ccc2nc(SC3CC(=O)N(c4cccc(OC)c4)C3=O)sc2c1 (configuration not stated)	-16.1%
Cc1cc(OCC(=O)N2CCCC2)cc(C)c1Cl	11.2µM*
Cc1ccc(/C=N/c2sc3c(c2C#N)CCCCC3)o1	-14.5%
CCOc1ccc(-c2nnc(-c3ccco3)o2)cc1	?

Compounds listed so far that contain a furan ring, fused or not, in the order listed:
SMILES	HPGD block
CC(C(=O)NC1CCCC1)N(Cc1ccco1)C(=O)c1snc(C(=O)NC2CCCC2)c1N (configuration not stated)	-29.4%
COc1cc(C(=O)NCC(c2ccco2)N2CCCC2)ccc1OCc1c(C)noc1C (configuration not stated)	-8.4%
O=C(C1=C(O)C(=O)N(CC2CCCO2)C1c1cccnc1)c1ccco1 (configuration not stated)	-16.1%
Cc1ccc(C(=O)Nc2sc3c(c2C(=O)NCc2ccco2)CCCC3)cc1	?
Cc1ccc2cc(C#N)c(NCc3ccco3)nc2c1	-26.6%
O=C(Nc1ccc(N2CCN(C(=O)c3ccco3)CC2)c(Cl)c1)c1c(F)c(F)c(F)c(F)c1F	-15.6%
O=C(NCc1ccco1)c1nc2ccccc2s1	?
O=C(Nc1ccccc1N1CCOCC1)c1cc(-c2ccco2)nc2ccccc12	-12.2%
NC(=O)c1csc(-c2ccc(CO)o2)n1	-4.3%
O=C(Nc1cccc(F)c1)/C(=C\c1ccco1)NC(=O)c1cccs1	-19.7%
Cc1occc1-c1nnc(SCC(=O)N2CCOCC2)n1Cc1ccco1	-8.9%
Cc1ccc(S(=O)(=O)Cc2ccc(C(=O)N3CCN(Cc4ccccc4)CC3)o2)cc1	-23.1%
Cc1ccc(/C=N/c2sc3c(c2C#N)CCCCC3)o1	-14.5%
CCOc1ccc(-c2nnc(-c3ccco3)o2)cc1	?
